Bioassay records (PubChem BioAssay)
D2 ag = human D2 receptor agonism in beta-arrestin assay | P14416 | hit rate 0.084% among 360,000 | DiscoveRx PathHunter D2 beta-arrestin, luminescence, 90 min; 100% = 57 uM dopamine signal | activation, % (no concentration beside the values) | AID 624465; in the data active = activation above about 40%; inconclusive = about 15% to 40%; inactive = below about 15%; note: compound concentration not given in the record; the text of the record calls up to 30% inactive
Target sequence (P14416 whole entry, looked up): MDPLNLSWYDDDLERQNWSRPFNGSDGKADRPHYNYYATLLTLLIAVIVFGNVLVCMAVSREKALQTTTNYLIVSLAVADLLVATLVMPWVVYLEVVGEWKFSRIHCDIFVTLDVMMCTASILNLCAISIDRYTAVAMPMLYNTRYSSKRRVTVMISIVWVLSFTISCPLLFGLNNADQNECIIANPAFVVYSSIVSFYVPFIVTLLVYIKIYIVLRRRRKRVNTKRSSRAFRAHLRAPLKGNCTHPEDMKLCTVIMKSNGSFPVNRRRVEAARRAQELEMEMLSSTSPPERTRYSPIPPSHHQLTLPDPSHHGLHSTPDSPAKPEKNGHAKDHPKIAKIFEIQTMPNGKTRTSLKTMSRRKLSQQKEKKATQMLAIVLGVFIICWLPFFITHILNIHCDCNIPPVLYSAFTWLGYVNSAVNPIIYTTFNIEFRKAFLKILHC
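DiscoveRx PathHunter D2 beta-arrestin cells (2,100/well) attached overnight, then compound-stimulated 90 min at 37 C in HBSS/10 mM HEPES/0.1% Tween-20 buffer; beta-galactosidase complementation read by luminescence after 1 h at ambient temperature. Dopamine 57 uM final (EC100) as control.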
D2 PAM = human D2 receptor positive allosteric modulation. P14416. DiscoveRx D2 beta-arrestin cells, luminescence, 90 min; 100% = 57 uM dopamine signal. potentiation, % (test concentration not listed). hit rate 0.23% among 360,000. AID 624464; active = potentiation of 50% or more; inconclusive = 30% to 50%; inactive = 30% or less;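 note: compound concentration not given in the record; tested on top of an EC20 dose of dopamine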
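D2 cells co-treated with compound plus 50 nM dopamine (EC20) for 90 min at 37 deg C to detect potentiation. Beta-arrestin recruitment was read as enzyme-fragment luminescence after 1 h at ambient temperature. Full response was set by 57 uM dopamine.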
gsp antagonist = gsp mutant antagonism. gsp-mutant cells, cAMP HTRF, 30 min; control for the full effect not named in the record. Potency, µM (series often up to 76.9 µM), for inactives: top-dose activity change, negative = inhibition, usual class: inhibitors. hit rate 0.4% among 340,000; active = falling curve of any shape with a large fitted effect; inconclusive = falling curve, mostly with a smaller effect; inactive = flat or rising curve; cell line not stated here;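 note: intracellular cAMP measured with PDE inhibitor Ro 20-1724 present during compound exposure; potency is the fitted concentration of half-maximal effect; % is set by controls: 0 for no effect and ±100 for the full control effect; nearly all actives have a fitted effect of over 65% in size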
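HTRF cAMP read-out (cAMP-d2 plus anti-cAMP antibody-K in lysis buffer, 30 min RT). Before lysis, cells are exposed to compounds with […] for 30 min at 37C in DPBS containing Ca/Mg, BSA and Tween 20.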
gsp ag = activates gsp, the McCune-Albright syndrome mutation; gsp mutant cells, cAMP HTRF, 30 min; control for the full effect not named in the record; Potency, µM (top dose mostly 76.9 µM), without a hit: top-dose activation (cAMP increase), hits mostly activators; hit rate 0.13% among 340,000; active = well fitted activation curve with a large enough effect; inconclusive = small, poorly fitted or top-dose-only effect, or another doubt; inactive = no such curve, though single readings can be large or run the other way; cell line not stated here;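 note: phosphodiesterase inhibitor Ro 20-1724 added with compounds to block cAMP breakdown; potency is the fitted concentration of half-maximal effect; nearly all actives have a fitted effect of over 60% in size; about a fifth of the inactives were tested at one dose only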
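Cells stably selected in G418 were plated at 2000/well, grown 16-24 hr, then given compounds in DMSO with the PDE inhibitor […] (300 uM solution added) for 30 min at 37C; cAMP was read by HTRF.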
Six1-Eya2 blk = inhibitors of human Six1/Eya2 interaction; AlphaScreen GST-Six1/His-Eya2 binding, biochemical; hits give low values; control for the full effect not named in the record; activity change, % (test concentration not listed); hit rate 0.56% among 360,000; in the data active = activity change below about -65%; inconclusive = about -30% to -65%; inactive = above about -30%; note: % is set by controls: 0 for no effect and ±100 for the full control effect; compound concentration not given in the record
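Six1/Eya2 binding was read as AlphaScreen signal after compounds were pinned into GST-Six1 plus His-tagged Eya2 (5X stock 250/500 nM) in pH 8.0 Tris/NaCl/TCEP buffer, beads added, then incubated 1 h, 37 C, dark.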
CtBP-E1A blk = blocks the CtBP interaction with E1A | AlphaScreen GST-E1A/His-CtBP binding, 1536-well; hits give low values; control for the full effect not named in the record | activity change, % (no concentration beside the values) | hit rate 0.49% among 340,000; in the data active means activity change below about -65%; inconclusive means about -30% to -65%; inactive means above about -30%; note: % is set by controls: 0 for no effect and ±100 for the full control effect; compound concentration not given in the record
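In 5 uL wells, 23 nL compound meets equimolar GST-E1A and His-CtBP (5X stock 125 nM each) for 2 h, 37 °C. Beads (5X, 50 ug/mL) then 1 h, 37 °C, dark.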
* marks the source's active call; other numbers are inactive results; ? = inconclusive; · = no result given; [ ] = dose if it differs, or a comment.

smiles,D2 ag,D2 PAM,gsp antagonist,gsp ag,Six1-Eya2 blk,CtBP-E1A blk
CC(C)c1nc(CN2CCCCC2)cc(=O)[nH]1,-1.9,-5,5%,2%[15.4 µM],-3,-1
CS(=O)(=O)N(CCCC(=O)N1CCCCCC1)c1cccc(Cl)c1,-3.9,-10,0%,-1%,?,·
O=C(COC(=O)c1ccccc1NC(=O)c1ccco1)NC1CC1,-19,1,-22%,-25%,-2,-1
O=C(O)C(Cc1ccccc1)n1cnnn1 (centres undefined),-2.9,-6,9%,14%[15.4 µM],-3,-1
COc1cccc(C2=Nc3cccc4cccc(c34)N2)c1,9.0,18,-13%,-1%[15.4 µM],-17,-8
COc1ccccc1-c1cccc([C@@H]2C[C@H]3[C@H](CON3C)CN2C(C)=O)c1,-0.1,-4,5%,·,14,-7
COc1ccccc1OCCC(=O)OCC(=O)Nc1ccc(S(=O)(=O)N2CCOCC2)cc1,3.6,-29,·,14%[15.4 µM],0,-3
CCN1CCN(c2ccc(NC(=O)c3ccc(Br)o3)cc2)CC1,-5.6,-11,3%,-4%,-28,-23
CCC(C)n1[nH]c(=O)cc1N (centres undefined),-1.6,-10,6%,22%,17,44
Cc1nn(C)c(C)c1NC(=O)CSc1nnc(C)n1-c1ccccc1,-1.8,-12,12%,26%,-1,5
COc1ccc(CC2C(=O)OC(C)(C)OC2=O)cc1,-0.8,10,3%,-36%[inhibitor],6,3
COc1cc(C(=O)NNC(=S)NC(=O)c2ccccc2C)cc(OC)c1OC,-7.2,0,6%,0%,-19,-9
CC(=O)Nc1ccc(S(=O)(=O)NNC(=O)NC23CC4CC(CC(C4)C2)C3)cc1,-1.6,-5,3%,-75%[inhibitor],3,0
Cc1ccc(C)c(C(=O)CSc2nnnn2C(C)C)c1,-1.5,3,-1%,-47%[inhibitor],5,11
COC(=O)c1c(C)[nH]c(C=Nc2ccc(OC)cc2)c1C,-0.1,-6,-3%,-7%[15.4 µM],-3,0
CC(NC(=O)/C=C/c1cnc2ccccc2n1)C12CC3CC(CC(C3)C1)C2 (centres undefined),-3.2,-14,-8%,-23%,-23,-23
O=C(NCc1ccccc1)c1ccc(NC(=O)C2CC2)cc1,-2.1,0,0%,·,9,9
O=C(/C=C/Nc1ccccc1O)c1ccco1,-2.1,-2,4%,3%[15.4 µM],2,0
CCCN1CCC(NC(=O)Nc2cccc3ccccc23)CC1,-5.2,-21,6%,-93%[inhibitor],0,-3
O=C(Cn1cnc([N+](=O)[O-])n1)N/N=C/c1cccc(Cl)c1,5.3,-7,-5%,12%,5,·
Cc1ccc(Cl)cc1N1CCN(C(=O)c2cccc3c(=O)c(C)c(-c4ccccc4)oc23)CC1,-6.5,-5,1%,22%[15.4 µM],-7,-6
CC(C)Cn1c(SCC(=O)NC(=O)Nc2ccc3c(c2)OCCO3)nc2ccccc2c1=O,-1.3,12,-1%,-23%,-1,3
O=C(COC(=O)C1CC2CCCC(C1)C2=O)Nc1cccc(F)c1 (centres undefined),-1.6,-10,4%,6%,10,-5
O=C(OCC(=O)N1CCCC1)c1c2c(nc3ccccc13)CCCCC2,-2.0,23,-27%,27%,2,·
CCn1c(=S)sc2c(=O)n(CC(=O)Nc3ccc(C(C)=O)cc3)c(C)nc21,-0.8,-4,-6%,-23%,3,6
OCC[C@@H]1C[C@H](O)[C@@H](O)[C@]2(Cc3ccccc3CCO2)O1,-3.7,-2,9%,-19%,-3,0
CCOC(=O)c1cccc(N2C(=O)c3ccccc3S2(=O)=O)c1,-1.6,-24,-4%,1%,4,5
CC1(OC(=O)CCc2ccccc2)C(=O)C=C2C=C3CCCN3C=C2C1=O (centres undefined),4.1,11,-1%,·,-4,-5
COc1ccc(NC(=O)CS(=O)CC(=O)N2CCN(C3CCCC3)CC2)cc1 (centres undefined),-1.4,-5,4%,5%,-6,-17
CCCCOc1nc(N)nc(-c2ccccc2)n1,-1.9,-9,-23%,-5%,19,48
Cc1c(N2C(=O)C3C4C=CC(C5CC45)C3C2=O)c(=O)n(-c2ccccc2)n1C (centres undefined),-3.3,0,5%,10%,1,-10
O=C(c1cc(COc2cccc(C(F)(F)F)c2)on1)N1CCC(c2ccncc2)CC1,10,-23,?,-15%,-1,11
O=Cc1ccc(C(=O)OCC(=O)N2CCCC2)cc1,-2.5,-4,-3%,-18%[15.4 µM],0,11
COC(=O)C1CCN(C(=O)C2CCCCC2)CC1,-0.7,-13,15%,2%,6,5
CCCCC(CC)C1OCC(C[N+]2(C)CCOCC2)O1 (centres undefined),-0.6,-2,-2%,-18%,9,5
COC(=O)CCN(C(=O)C1C2CC3CC(C2)CC1C3)c1ccccn1 (centres undefined),?,0,6%,14%,2,-2
COc1ccc(C(=O)COC(=O)COc2cc(C)cc(C)c2)cc1,-3.7,-6,0%,-59%[inhibitor],19,-22
COC(=O)c1ccc(Sc2ccc(C)cc2)c(N)c1,-1.6,-12,-6%,-2%,20,9
Cc1ccc2nc(-c3cccc(Br)c3)cc(C(=O)NC3=NCCS3)c2c1,0.5,-6,-4%,3%[15.4 µM],-5,-1
O=C(CC12CC3CC(CC(C3)C1)C2)NCC(=O)N1CCCC1,-0.3,-11,2%,13%,-4,-1
O=C(Nc1cc(Cl)ccc1N1CCOCC1)c1ccncc1,-2.9,-1,-13%,-28%,-8,-5
CC(C)c1ccc(N(C(=O)c2ccco2)C(C(=O)NC2CCCC2)c2cccnc2)cc1 (centres undefined),1.3,6,-7%,3%,6,2
NC(=O)c1nsc(C(=O)N(CCc2ccccc2)C(C(=O)NC2CCCC2)c2ccco2)c1N (centres undefined),-1.3,-7,-14%,-77%[inhibitor],-5,13
Nc1ccc(N2CCCCC2)c(Cl)c1,1.1,-6,5%,-24%,-3,-2
Cc1nn(C(C)(C)C)c(N)c1-c1ccccc1,1.4,-19,28%,?,-1,7
Cc1ccnc(NS(=O)(=O)c2ccc(NC(=O)/C=C/c3ccccc3)cc2)n1,0.0,2,-12%,-2%[15.4 µM],8,-23
CC(=O)N(C(C)=O)n1c(/C=C/c2ccc([N+](=O)[O-])cc2)nc2ccccc2c1=O,8.3,14,-11%,7%[15.4 µM],-9,?
O=C(c1noc2c1CCCC2)N1CCN(c2ccc(F)cc2)CC1,-2.2,1,0%,-2%,-1,2
Cn1c(CNC(=O)CNS(=O)(=O)c2ccc(Cl)cc2)cc(=O)n(C)c1=O,0.8,-2,-3%,?,2,2
O=C(Nc1nnc(SCCN2CCOCC2)s1)C1CC(=O)N(c2ccccc2)C1 (centres undefined),-1.5,-4,7%,-46%[inhibitor],-6,-1

(listing goes on)
smiles,D2 ag,D2 PAM,gsp antagonist,gsp ag,Six1-Eya2 blk,CtBP-E1A blk
Cc1cccc(NC(=O)CN2C(=O)NC(C)(c3ccc4ccccc4c3)C2=O)n1 (centres undefined),-0.3,2,1%,7%,0,-8
COc1ccc(C(C)=O)cc1COc1cccnc1[N+](=O)[O-],-6.7,-3,-4%,6%[15.4 µM],-5,11
CC(=O)Nc1cccc(C(=O)OCc2ccc(C(=O)Oc3ccc(Cl)cc3)cc2)c1,0.2,-1,-19%,31%,2,16
O=C(NC1CCCCC1)C1CCN(C(=O)c2ccc(Cl)cc2)CC1,-2.9,-1,3%,0%[15.4 µM],5,-6
Cc1ccc(SC2CC(=O)N(c3ccc4c(c3)OCCO4)C2=O)cc1 (centres undefined),-5.2,-4,-20%,-6%,-5,-7
Cc1ccc2nc(N(CCCN(C)C)C(=O)c3ccc4c(c3)CCCC4)sc2c1,-1.7,-42,21%,-1%,?,-30
O=C(NCc1ccccc1)C(=O)NCC1OCCN1C(=O)c1ccc(Cl)cc1 (centres undefined),1.5,3,17%,-11%[15.4 µM],1,-2
Cn1c(SCC(=O)c2ccc(F)cc2)nnc1-c1cccnc1,-4.6,-1,6%,10%[15.4 µM],17,4
Cc1cc2ccccn2c1C(=O)c1ccc(C#N)cc1,2.3,6,-6%,11%[15.4 µM],-7,-10
COc1ccccc1C1(O)CCN(CC(=O)Nc2nc(-c3ccccc3)cs2)CC1,2.0,-14,-21%,-6%[15.4 µM],-10,-15

Next section (3 carried over from the part before).
smiles,D2 ag,D2 PAM,gsp antagonist,gsp ag,Six1-Eya2 blk,CtBP-E1A blk
Cn1c(SCC(=O)c2ccc(F)cc2)nnc1-c1cccnc1,-4.6,-1,6%,10%[15.4 µM],17,4
Cc1cc2ccccn2c1C(=O)c1ccc(C#N)cc1,2.3,6,-6%,11%[15.4 µM],-7,-10
COc1ccccc1C1(O)CCN(CC(=O)Nc2nc(-c3ccccc3)cs2)CC1,2.0,-14,-21%,-6%[15.4 µM],-10,-15
CCOC(=O)C1(C)CCCN(C(=O)c2cc(OC)c(OC)c(OC)c2)C1 (centres undefined),-2.2,-6,·,·,4,6
CN1/C(=C\C(=O)c2cccnc2)Sc2ccccc21,-6.2,-2,-8%,0%[15.4 µM],5,-9
Cc1cc2nc(-c3ccc4c(c3)CCC4)ccn2n1,0.0,-1,-5%,?,50,62
Cc1nc(-c2nc(-c3c(C(=O)NNC(=O)Nc4ccccc4)noc3C)cs2)cs1,2.6,-6,-13%,-5%,3,-8
O=C(CSc1nnc(-c2cccnc2)o1)Nc1ccccn1,0.8,-3,3%,-19%,-1,-2
O=C(NC(c1ccccc1)c1ccccc1)C1CCCC1,-0.9,0,1%,-18%,6,7
O=C(COC(=O)CCc1ccc(S(=O)(=O)N2CCOCC2)cc1)NCc1ccccc1Cl,-2.2,-5,-22%,?,5,5
C[C@H]1COC(=O)[C@H](Cc2ccc(F)cc2)C/C=C\C[C@@H](CC(=O)NCCO)C(=O)N1,-1.9,-11,5%,-12%,0,·
CC(C)NC(=O)Nc1cccc2c1O[C@H](CN(C)S(=O)(=O)c1ccccc1)[C@@H](C)CN([C@H](C)CO)C2=O,1.3,3,-1%,-19%,9,0
CCN(CC)CCNC(=O)c1c(O)c2c([nH]c1=O)CCCC2,-2.0,1,-2%,-24%,0,6
CCOC(=O)c1ccc(NC(=O)c2nc[nH]c2C(=O)N2CCC(C)CC2)cc1,-2.4,-9,-19%,·,-2,-4
CCOC(=O)C1(Cc2cccc(OC)c2)CCN(Cc2cnc(C)s2)CC1,0.8,-5,-4%,0%[15.4 µM],-3,-3
CC(=O)N1CCc2cc(Br)cc(S(=O)(=O)N3CCN(C(=O)c4ccco4)CC3)c21,-2.8,-8,2%,28%,-1,-1
CCOC(=O)N1CCN(S(=O)(=O)c2ccc(OC)c(OC)c2)CC1,1.0,4,14%,2%,0,2
